# High-throughput results as filed in PubChem.
# TRPML1 blocker: inhibitors of human TRPML1 channel. TRPML1-inducible cells, Ca2+ dye fluorescence, FDSS; stronger effect = lower value; inhibition of EC80 agonist-evoked calcium signal. activity change, negative = inhibition, % (no concentration beside the values). 390,000 compounds, 0.02% hits; in the data active means activity change below about -50%; inconclusive means about -30% to -50%; inactive means above about -30%;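 note: stimulus is agonist 54-4 at its EC80 concentration; % is set by controls: 0 for no effect and ±100 for the full control effect; compound concentration not given in the record; the text of the record puts the active cut at -80%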
# Target sequence (Q9GZU1 whole entry, looked up): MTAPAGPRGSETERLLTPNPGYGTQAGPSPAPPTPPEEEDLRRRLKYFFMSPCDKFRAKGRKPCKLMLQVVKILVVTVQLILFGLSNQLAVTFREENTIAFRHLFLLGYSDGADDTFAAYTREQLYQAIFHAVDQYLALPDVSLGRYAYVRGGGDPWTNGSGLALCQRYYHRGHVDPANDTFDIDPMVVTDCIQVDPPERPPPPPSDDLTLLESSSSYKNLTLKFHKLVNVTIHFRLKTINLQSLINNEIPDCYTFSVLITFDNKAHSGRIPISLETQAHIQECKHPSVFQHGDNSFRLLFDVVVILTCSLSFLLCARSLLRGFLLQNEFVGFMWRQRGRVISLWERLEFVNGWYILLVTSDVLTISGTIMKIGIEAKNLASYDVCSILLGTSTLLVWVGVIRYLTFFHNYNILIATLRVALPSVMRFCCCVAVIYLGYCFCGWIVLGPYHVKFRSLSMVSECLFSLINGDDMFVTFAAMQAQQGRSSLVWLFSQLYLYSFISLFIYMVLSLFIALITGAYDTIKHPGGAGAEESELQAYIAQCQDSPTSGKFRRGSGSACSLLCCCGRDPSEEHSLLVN
#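 TRPML1-DL cells, Tet-induced overnight (~16 h, 37 °C) at 1,500 cells/well, were loaded with Ca8 no-wash dye plus quencher for 45-90 min at room temperature. Compounds were pinned during FDSS kinetic reading; agonist 54-4 at EC80 (4 uM final) then added.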
# gsp antagonist: gsp mutant antagonism | AID 624288 | gsp-mutant cells, cAMP HTRF, 30 min; control for the full effect not named in the record | 340,000 compounds, 0.4% hits | Potency, µM (titrated, usually from 76.9 µM), for inactives: at the top dose activity change, negative = inhibition, hits mostly inhibitors; active = falling curve of any shape with a large fitted effect; inconclusive = falling curve, mostly with a smaller effect; inactive = flat or rising curve; cell line not stated here;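 note: intracellular cAMP measured with PDE inhibitor Ro 20-1724 present during compound exposure; potency is the fitted concentration of half-maximal effect; % is set by controls: 0 for no effect and ±100 for the full control effect; nearly all actives have a fitted effect of over 65% in size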
#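 Cells, 2000/well, grown 16–24 h in DMEM 10% FBS with 0.5 mg/ml G418, then compounds plus […] (300 uM addition stock), 30 min at 37C. cAMP read by HTRF (cAMP-d2 and anti-cAMP antibody-K in lysis buffer) after 30 min RT.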
# ClpP mod: qHTS Assay for Activators of ClpP | ATP-dependent Clp protease proteolytic subunit (Bacillus subtilis (strain 168)), P80244 | purified B. subtilis ClpP, FRET peptide cleavage, 20 min | Potency, µM (doses to about 57.5 µM), inactives show at the top dose activity change, negative = active | 340,000 compounds, 1.9% hits | AID 651965, 2013; active = well fitted falling curve with a large enough effect; inconclusive = small, poorly fitted or top-dose-only effect; inactive = no such curve, though single readings can be large or run the other way; note: potency is the fitted concentration of half-maximal effect; the source files actives as falling curves though it sought activators and does not explain the sign; nearly all actives have a fitted effect of over 65% in size; many hits overshoot -100%
# Target sequence (P80244 whole entry, looked up): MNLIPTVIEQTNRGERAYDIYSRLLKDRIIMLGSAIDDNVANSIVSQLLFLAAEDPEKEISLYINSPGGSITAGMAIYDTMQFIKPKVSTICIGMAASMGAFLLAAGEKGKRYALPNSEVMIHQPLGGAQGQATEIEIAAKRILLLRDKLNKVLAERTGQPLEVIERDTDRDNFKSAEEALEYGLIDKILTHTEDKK
#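 Buffer: 100 mM Tris/HCl pH8, 100 mM KCl, 0.05% low protease BSA, 2.5% glycerol, 0.01% Tween-20. ClpP 10 microg/mL final; 20 min RT; delta FRET normalized to ADEP and DMSO controls.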
# Menin-MLL FL inh: inhibitors of human menin-MLL interaction, wild-type MLL peptide; Fluorescence polarization, fluorescein-MLL peptide displacement from menin; FP activity change, % at 61.4 µM; 290,000 tested, under 10 active; inconclusive = falling polarisation curve, or a change in total fluorescence; inactive = total fluorescence flat and polarisation flat or rising; no compound was filed as active; the % refers to the polarisation; negative = inhibition;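 note: % of control where 0% means no effect; inhibitors lower the polarisation; unlabelled MLL peptide was the positive control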
# Sfp inh: inhibitors of Bacillus subtilis Sfp phosphopantetheinyl transferase; AID 1490; Biochemical Sfp PPTase activity, qHTS; 310,000 compounds, 3.5% hits; Potency, µM, without a hit: max response, negative = inhibition, usual class: inhibitors; active = well fitted inhibition curve with a large enough effect; inconclusive = small, poorly fitted or top-dose-only effect, or another doubt; inactive = no such curve, though single readings can be large or run the other way;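 note: the enzyme is Sfp with the accession as filed and its product quenches rhodamine fluorescence; potency is the fitted concentration of half-maximal effect; 0% = enzyme reaction without inhibitor and -100% = no enzyme wells; top concentration of the series not given in the record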
#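 With Hepes-Na pH 7.6 buffer containing 10 mM MgCl2, Sfp (15 nM) modified BHQ-2-YbbR (12.5 uM) using rhodamine-CoA (5 uM). Two reads 30 minutes apart at 525/598 nm yielded each well's rate.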
# TRPV1 potentiator: potentiators of human vanilloid receptor 1 (TRPV1); Q8NER1; TRPV1-expressing cells, Fluo-8 calcium influx, capsaicin EC20 potentiation; host cell line not named in the record; control for the full effect not named in the record; potentiation, % at 8.33 µM; 320,000 compounds, 0.02% hits; AID 540277; active means potentiation above 80%; inconclusive means 30% to 80%; inactive means below 30%; note: 0% is about no effect
#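 TRPV1-expressing cells were cultured overnight at 35.5C and loaded with Fluo-8 calcium dye for 40 to 90 min at room temperature. After a 10 s baseline, compound was added and calcium influx was read kinetically for 3 min (ex 480/em 520 nm).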
# gsp ag: gsp mutant agonism | gsp mutant cells, cAMP HTRF, 30 min; control for the full effect not named in the record | Potency, µM (doses to about 76.9 µM), inactives show at the highest dose activation (cAMP increase), hits mostly activators | 340,000 compounds, 0.13% hits; active = well fitted activation curve with a large enough effect; inconclusive = small, poorly fitted or top-dose-only effect, or another doubt; inactive = no such curve, though single readings can be large or run the other way; cell line not stated here;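 note: phosphodiesterase inhibitor Ro 20-1724 added with compounds to block cAMP breakdown; potency is the fitted concentration of half-maximal effect; nearly all actives have a fitted effect of over 60% in size; about a fifth of the inactives were tested at one dose only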
#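 Cells stably selected in G418 were plated at 2000/well, grown 16-24 hr, then given compounds in DMSO with the PDE inhibitor […] (300 uM solution added) for 30 min at 37C; cAMP was read by HTRF.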
# Starred values were filed as active, the others as inactive; ? = inconclusive; nt = not tested or not shown; & = joins results of further samples; [ ] = another dose, or the depositor's remark.
molecule	TRPV1 potentiator	gsp ag	ClpP mod	gsp antagonist	Sfp inh	TRPML1 blocker	Menin-MLL FL inh
COc1ccc(N(CC(O)Cn2nnc3ccccc32)S(=O)(=O)c2ccc(C)cc2)cc1 (stereo not given)	-14	-20%	-1.3%	-3%	7%	-2	0.4
CCOc1ccccc1NC(=O)COC(=O)/C=C/c1cccs1	nt	-17%	nt	-7%	nt	10	nt
COc1cccc(N2CCN(CC(=O)Nc3nnc(-c4ccccc4)s3)CC2)c1	4	-28%	-3.1%	?	-1%	23	1.6
COc1cccc(CC(NC(C)=O)C(=O)NC2CCN(c3nnnn3-c3ccccc3)CC2)c1 (stereo not given)	7	27%	2.0%	-4%	14%	-8	-0.6
COc1ccc2ccc(OCC(=O)NCC3CCCO3)cc2c1 (stereo not given)	-15	-4%	-5.7%	3%	nt	9	nt
O=C(C1CCCN(c2ncnc3c2nc2n3CCCCC2)C1)N1CCCCC1 (stereo not given)	-5	-48%[inhibitor]	0.9%	-9%	3%	3	4.6
CCOC(=O)c1ccc(NC(=O)c2c(N)n(C)c(=O)n(C)c2=O)cc1	nt	nt	-12%	12%	nt	-5	nt
CNC[C@H]1Oc2c(NC(=O)C3CC3)cccc2C(=O)N([C@H](C)CO)C[C@@H]1C	nt	nt	0.4%	12%	nt	8	nt
N/C(=N\OC(=O)c1csnn1)c1ccc(C(F)(F)F)cc1	-2	2%[15.4 µM]	nt	9%	56µM*	19	4.4
O=C(Nc1ccc(Cl)cc1C(=O)N1CCCCC1)c1ccco1	-9	11%[15.4 µM]	nt	-29%	25%	-3	1.5
O=C(c1cc2ccccc2s1)N1CCOCC1	-14	0%[15.4 µM]	nt	5%	-6%	-2	2.9
COc1cccc(-c2nnc3sc(-c4ccco4)nn23)c1	4	1%	-7.7%	-4%	-18%	0	0.1
CN1CCc2c(sc(/N=C/c3c[nH]c4ccccc34)c2C#N)C1	-6	-10%[15.4 µM]	nt	8%	?	11	?
CCCc1cc(=O)[nH]c(SCC(=O)NC(=O)c2ccccc2)n1	1	-9%	-0.9%	3%	20%	-2	4.1
CCCCCC[n+]1c(-c2ccc(Cl)cc2Cl)csc1Nc1ccccc1	4	-29%	0.8%	2%	7%	-1	0.6
Cc1cc2nsnc2c(S(=O)(=O)NCC(=O)O)c1C	nt	-6%	0.9%	3%	11%	3	-1.1
C/C(=N\NC(=O)NC1CCCCC1)c1ccc(OC(F)F)cc1OC(F)F	7	?	-0.3%	-5%	-10%	17	-2.5
CCO[C@H]1OC(C(=O)Nc2ccccc2)=C[C@@H](C2CC2)[C@@H]1CCCO	9	nt	2.1%	-11%	10%	-12	-2.3
CC1CCc2c(sc3ncnc(NCc4cccnc4)c23)C1 (stereo not given)	-6	30%	2.5%	-2%	-8%	-2	-4.2
COC(=O)c1cc([N+](=O)[O-])c(C)c(C)n1	nt	1%	-0.8%	nt	nt	11	nt
CC(NC(=O)CCNC(=O)c1ccc(C(C)(C)C)cc1)c1ccccc1 (stereo not given)	nt	-55%[inhibitor]	1.0%	-5%	nt	-7	nt
CCOc1ccccc1-n1nnnc1SCC(=O)Nc1cc(C)on1	8	4%	0.2%	4%	6%	-5	6.1
COCCN(C(=O)c1csnn1)C(C(=O)NC1CCCCC1)c1ccc(C)cc1 (stereo not given)	12	15%	nt	8%	17%	5	?
C=CCn1c(SCc2ccc(C(=O)Nc3nccs3)cc2)nnc1-c1ccc(C)c(Cl)c1	7	-12%	-27%	?	4%	-11	-1.6
C=CC[C@@H](CC(=O)N(CCO)Cc1ccccc1)C(=O)N[C@H](COC(=O)[C@@H](CC=C)Cc1ccc(F)cc1)C(C)(C)C	nt	nt	-0.7%	-13%	nt	7	nt
CCN(CC)c1ccc(/C=N/NC(=O)c2ccc(Br)o2)cc1	-2	0%	-4.7%	-11%	-7%	33	-0.6
CCOc1ccc(OCC)c(NC(=O)C2CCCN2S(=O)(=O)c2cccc3cccnc23)c1 (stereo not given)	2	12%	1.4%	-22%	10%	20	2.0
CC(=O)CCc1oc2ccc(C)cc2c1-c1ccc(C)o1	-6	-3%[15.4 µM]	1.7%	-40%	22µM*	3	-2.5
CCn1c2ccccc2c2nnc(SCc3ccc(C(=O)OC)o3)nc21	2	?	-0.9%	5%	32µM*	6	4.1
Cn1cnnc1SCc1ccc(C(=O)N=Nc2c(O)n(C)c3ccccc23)cc1	0	-2%	-1.4%	-10%	6%	-1	9.8

# Whole records, looked up by structure. Order of values: TRPV1 potentiator	gsp ag	ClpP mod	gsp antagonist	Sfp inh	TRPML1 blocker	Menin-MLL FL inh
# `COc1ccc2ccc(OCC(=O)NCC3CCCO3)cc2c1` (stereo not given) as listed: -15	-4%	-5.7%	3%	nt	9	nt
# `Cc1cc2nsnc2c(S(=O)(=O)NCC(=O)O)c1C` as listed: nt	-6%	0.9%	3%	11%	3	-1.1
# `CCCCCC[n+]1c(-c2ccc(Cl)cc2Cl)csc1Nc1ccccc1` as listed: 4	-29%	0.8%	2%	7%	-1	0.6

# The list goes on.
molecule	TRPV1 potentiator	gsp ag	ClpP mod	gsp antagonist	Sfp inh	TRPML1 blocker	Menin-MLL FL inh
CC(C)(C)C1=C(C#N)C(c2ccc3c(c2)OCO3)C(C#N)=C(N)O1 (stereo not given)	25	4%	-7.8%	-4%	-15%	-7	-18
CCOC(=O)C1(Cc2cccc(OC)c2)CCN(CC=C(C)C)CC1	-4	12%	-2.1%	9%	9%	23	-0.1
O=C(/C=C/c1ccccc1)Nc1cccc(C(=O)O)c1	4	-32%[inhibitor]	-2.1%	4%	15%	8	1.5
CN(CC(=O)Nc1cccc(F)c1)C(=O)c1cccc(S(=O)(=O)N2CCN(c3ccc(F)cc3)CC2)c1	nt	7%	-4.1%	?	nt	23	nt
COC(=O)c1sccc1S(=O)(=O)NC(C)c1cnn(-c2ccc(OC)cc2)c1C (stereo not given)	-10	-9%	0.3%	4%	12%	-1	5.9
O=C(CCC(=O)c1cccs1)Nc1ccc(F)c(F)c1F	11	25%	4.2%	9%	-17%	-6	11
CN=C1SC(CC(=O)Nc2ccc(N3CCOCC3)cc2)C(=O)N1C (stereo not given)	9	-20%	-1.0%	9%	-5%	5	-2.2
CCO[C@@H]1OC(C(=O)NCc2ccccc2)=C[C@H](C2CC2)[C@H]1CCCO	-3	?	2.9%	-8%	-7%	-19	-2.4
CCOc1ccc(N(CC)C(=O)c2nn(-c3ccc(OC)cc3)c(=O)c3c2c2ccccc2n3C)cc1	-7	8%	?	-7%	-14%	16&8	0.7
CCN(CC(=O)Nc1ccc(NC(C)=O)cc1)C(=O)C(c1ccccc1)c1ccccc1	?	18%	0.7%	-15%	14%	52	0.4
O=C(CCc1nnc(C2(c3ccc(Cl)cc3)CCC2)o1)NC1CC1	4	26%	nt	5%	6%	10	1.6
O=C(C[C@H]1C/C=C\C[C@@H](Cc2ccc(F)cc2)C(=O)OC[C@@H]2CCCN2C1=O)NCCO	nt	nt	0.9%	?	nt	0	nt
COc1cc(NC(=O)c2ccc(COCC(F)(F)F)o2)cc(OC)c1OC	-11	-52%[inhibitor]	-1.5%	2%	14%	-8	6.2
CC(NC(=O)c1cn(C)c2ccc(S(=O)(=O)N3CCCC3)cc2c1=O)c1ccc2c(c1)OCCO2 (stereo not given)	-5	29%	-7.2%	3%	0%	2	-0.4
Cc1cc(=O)oc2cc(OCC(=O)OCC(=O)Nc3c(C)n(C)n(-c4ccccc4)c3=O)ccc12	-2	-1%[15.4 µM]	nt	5%	17%	5	-2.3
O=C(C[C@@H]1C/C=C/CCCC(=O)O[C@H](c2ccccc2)CNC1=O)NCCO	nt	nt	1.8%	11%	nt	-11	nt
O=C(NC1CCCC1)C1CC(=O)N(c2ccc(F)cc2)C1 (stereo not given)	3	4%	nt	2%	17%	-4	0.3
C=CCN(C(=O)CSc1nnnn1C)c1nc(-c2ccccc2)cs1	9	26%	-0.6%	-7%	nt	0	nt
COc1ccccc1C(C)NC(=O)CCOc1cccc(C)c1 (stereo not given)	-29	?	nt	2%	-13%	-7	3.8
O=C(O)/C=C/c1ccc2c(-c3ccccc3)onc2c1	17	-8%	-2.6%	-18%	?	0	21
Cc1cc(Cl)ccc1NC(=S)N1CCN(C(=O)c2ccco2)CC1	2	-6%[15.4 µM]	-5.2%	3%	12%	5	nt
CC(C)(C)NS(=O)(=O)c1ccc(CCC(=O)N2CCCCC2)cc1	1	-27%	2.4%	3%	21%	-1	-2.0
CC(C)OCCCNC(=O)Cn1ccc2cc(S(=O)(=O)N3CCCCC3)ccc21	8	1%	nt	-9%	14%	7	nt
CCc1c(O)nc(SCC(=O)Nc2ccc(C)cc2)n(C2CCCCC2)c1=O	-23	-21%	-7.4%	?	-3%	27	-0.2
CN(CCNC(=O)c1ccc(/C=N/O)nc1)Cc1ccccc1	-5	-3%	-2.0%	10%	-9%	7	-0.5
OC(COCCC12CC3CC(CC(C3)C1)C2)CN1CCCCC1 (stereo not given)	3	-8%	0.1%	2%	13%	10	-0.7
C=C(C)Cn1c(=O)c2c(nc3n2CCN3c2cccc(Cl)c2C)n(C)c1=O	-11	28%	-2.5%	5%	18%	-6	-0.9
O=C(CSc1nc2ccccc2o1)NC(=O)NCc1ccccc1	-5	?	0.0%	0%	4%	7	4.2
C=C(C)C(O)COc1c2occc2c(OC)c2ccc(=O)oc12 (stereo not given)	nt	-34%[inhibitor]	-11%	6%	nt	-1	nt
COc1ccc(Cl)cc1NC(=S)NCCSc1ccc(C)cc1	-39	18%	0.9%	8%	?	-6	3.7
